Env fusion inh: inhibitors of HIV-1 Env-driven cell-cell fusion, primary screen, HeLa-JRFL effector, CEM21 target cells, luciferase. hit rate 1.1% among 360,000. inhibition, % at 12.3 µM. AID 651610, 2012;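 active = mean replicate inhibition score of at least 50 and every replicate individually at or above 50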;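 also: 0% = plate neutral controls and 100% = maraviroc near 300 nM; one replicate is shown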
PABP FP inh: PABP poly(A) RNA binding inhibitors, primary screen, biochemical, fluorescence polarization, uHTS; Polyadenylate-binding protein 1 (Homo sapiens), P11940; hit rate 1% among 290,000; AID 2014, 2009; inhibition, % at 35 µM;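 active = 50% or more with normal probe brightness, or confirmed in later tests; about a fifth of its hits are not listed in these tables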;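 also: calls also rest on retests at 20 µM and on dose response follow-up; controls were probe without protein and protein plus probe with vehicle; some compounds called inactive have numbers as strong as hits; many hits fall short of the cut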
Target sequence (P11940 whole entry, looked up): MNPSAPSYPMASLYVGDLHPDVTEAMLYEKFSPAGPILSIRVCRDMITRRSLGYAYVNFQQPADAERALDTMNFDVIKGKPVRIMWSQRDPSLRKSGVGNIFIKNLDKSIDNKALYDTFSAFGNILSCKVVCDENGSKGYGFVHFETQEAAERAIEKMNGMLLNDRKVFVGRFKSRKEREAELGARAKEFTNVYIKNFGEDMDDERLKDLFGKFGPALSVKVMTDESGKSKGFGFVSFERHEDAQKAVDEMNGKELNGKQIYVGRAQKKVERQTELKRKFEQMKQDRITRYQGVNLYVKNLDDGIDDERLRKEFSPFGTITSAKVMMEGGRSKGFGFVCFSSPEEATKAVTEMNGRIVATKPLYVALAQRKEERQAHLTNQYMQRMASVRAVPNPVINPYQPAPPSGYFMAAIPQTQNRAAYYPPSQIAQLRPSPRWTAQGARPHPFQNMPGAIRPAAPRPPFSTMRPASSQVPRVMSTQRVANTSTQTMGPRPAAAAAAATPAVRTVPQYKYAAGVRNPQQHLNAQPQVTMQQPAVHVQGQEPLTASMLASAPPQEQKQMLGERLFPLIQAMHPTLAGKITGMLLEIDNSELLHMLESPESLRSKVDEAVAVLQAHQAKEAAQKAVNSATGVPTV
CSC inhib: cancer stem cell viability inhibitors, primary screen, luminescence; cancer stem cell-like cells viability; AID 2717, 2010; hit rate 1.1% among 300,000; inhibition, % at 7.5 µM;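 active = mean at 75% or more and at least half the replicates too; tested in HMLE shEcad cells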;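 also: 0% = median of negative and 100% = median of positive control wells; the first replicate is given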
Yeast UUG start: modulators of yeast start codon fidelity, primary screen, whole organism, S. cerevisiae, single point, plate reader; S. cerevisiae UUG-firefly luciferase reporter, luminescence/redox ratio; activity score, % at 18.7 µM; hit rate 0.13% among 350,000;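 active = replicate mean at a twofold rise or more, about +100% in these data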;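 also: firefly luciferase made from a UUG start codon reports start codon fidelity; reporter light over untreated wells divided by growth signal over untreated wells; some hits fall short of that in this replicate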
MT1-MMP act inh: blockers of MT1-MMP proenzyme processing, primary screen, HT1080 RFP-PRO-GFP cells, GFP/RFP fluorescence. GFP/RFP ratio fluorescence, overnight; percent of plate control window, DMSO zero. hit rate 0.061% among 360,000. Matrix metalloproteinase-14 (Homo sapiens), P50281. GFP/RFP ratio change, % at 20 µM;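 active = GFP/RFP ratio change of at least 30% with cell ATP level not reduced by more than half and red fluorescence within 50% of control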; also: strong numbers were not always called active
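Assay system: HT1080 RFP-PRO-GFP cells | Dosing: 20 µM single dose, 1% DMSO | Incubation: Cells overnight before dosing, compound overnight, 37 °C, 5% CO2 | Evaluation: GFP/RFP fluorescence ratio | Control set: DMSO-only wells and HT1080 RFP-L50D-GFP cell wells as references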
Rce1 inhib: yeast Rce1p protease inhibitors, primary screen, biochemical, fluorescence, cell-free homogeneous; hit rate 0.27% among 290,000; CAAX prenyl protease 2 (Saccharomyces cerevisiae (strain ATCC 204508 / S288c)), Q03530; AID 2563, 2010; yeast membranes, quenched prenylated peptide cleavage fluorescence; calls only;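 active = fall in fluorescence gain of 50% or more versus controls, with final raw signal at or below 3038400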;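 also: plate controls were neutral control wells for no effect and wells lacking membranes for full effect; tested at 10 µM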
eIF4H FP inh: human eIF4H binding inhibitors, primary screen, translation initiation inhibitor project, biochemical, uHTS, fluorescence polarization; eIF4H fluorescence polarization binding assay; inhibition, % at 35 µM; hit rate 0.94% among 290,000;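 active = 50% or more with normal probe brightness, or confirmed in later tests; about a fifth of its hits are not listed in these tables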;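 also: calls also rest on retests at 20 µM and on dose response follow-up; 0% = protein and probe with vehicle and 100% = probe without protein; strong numbers were not always called active; many hits fall short of the cut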
MT1-MMP act inh RFP: second read-out of MT1-MMP act inh, no call of its own (marks repeat the call); RFP signal change, %; measured here: RFP expression control read;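 0 = vehicle wells; hits needed this value within 50% of zero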
Numbers without * were called inactive; i = inactive; nt = not tested or not shown; & = joins results of further samples.

SMILES	Env fusion inh	PABP FP inh	CSC inhib	Yeast UUG start	MT1-MMP act inh	MT1-MMP act inh RFP	Rce1 inhib	eIF4H FP inh
N/C(=N\N=C\c1ccc2c(c1)OCO2)c1nonc1N	-154	7	5	nt	0	0	i	4
FC(F)(F)c1cc(C(F)(F)F)c2ccc(N3CCN(c4ccc(Cl)cc4)CC3)nc2n1	-37	0	14	-15	5	-2	i	-3
C(C#CCCCCCCCCC[n+]1ccccc1)#CCCCCCCCCC[n+]1ccccc1	nt	21	75*	13	-23&-26	-34&-32	i	21
Cc1nc2ncnn2c(C)c1CCC(=O)NCCC1=CCCCC1	-245	-7	1	-14	0	2	i	2
COc1ccccc1NS(=O)(=O)c1ccc2oc(SCC(=O)N3CCNC3=O)nc2c1	nt	nt	-10	4	-10	-6	nt	nt
CC(C)c1nc(-c2c(N)n(C)c(=O)n(C)c2=O)sc1C(=O)C(C)(C)C	-21	-1	-7	-20	-1	-8	i	1
C=CCN(CC=C)C(=S)Nc1ccccc1	-64	0	-12	-2	1	-2	i	-7
Cc1cc(-c2ccc(C)c(S(=O)(=O)NCC3CCN(Cc4ccc(F)cc4)CC3)c2)on1	-4	-6	nt	-4	3	-3	i	-5
Cc1c(NC(=O)/C(C#N)=C/c2ccc(-c3ccc(Cl)c(Cl)c3)o2)c(=O)n(-c2ccccc2)n1C	nt	0	23	nt	-3	-21	i	2
CC(NC(=O)CNC(=O)c1cccc(Cl)c1)c1ccccc1 (stereo unspecified)	-25	5	-1	nt	-2	3	i	8
CC(NCC(=O)Nc1ccccc1C(=O)NC1CC1)c1ccco1 (stereo unspecified)	-2	nt	nt	3	1	1	nt	nt
CCNC(=O)COn1c(SCC(=O)NCC)nc2ccccc2c1=O	-39	5	-7	4	2	4	i	-9
Cn1c2ccccc2c(=O)c2c(=O)n(Cc3ccco3)c(-c3ccc(F)cc3)nc21	-10	6	-13	-19	0	0	i	11
O=C(COC(=O)c1ccccc1SCC(=O)N1CCCC1)NCc1ccccc1	10	nt	-4	11	3	2	i	nt
CC(NC(=O)CN1CCN(c2ccccc2F)CC1)c1ccccc1 (stereo unspecified)	14	-4	nt	-26	nt	nt	i	-4
CSCCC(N=C1NS(=O)(=O)c2ccccc21)C(=O)NCCc1ccccc1 (stereo unspecified)	4	-2	-14	-11	-2	1	i	-22
CC(C)=C1C2CCC1C1C(=O)N(c3nc(-c4ccc(C(C)C)cc4)c(C)s3)C(=O)C21 (stereo unspecified)	-69	14	-1	-7	-17	-22	i	9
CCC(C)(C)C1CCc2[nH]nc(C(=O)NCc3ccc(OC)cc3)c2C1 (stereo unspecified)	1	nt	nt	-15	-3	-5	nt	nt
COCCCNC(=O)CN(c1cccc(Cl)c1)S(C)(=O)=O	-95	2	-15	-11	0	0	i	-2
O=c1c2c(-c3ccc([N+](=O)[O-])cc3)csc2nc2n1CCCCC2	0	-3	-3	nt	-6	-6	i	3
CCOC(=O)C1(Cc2ccccc2Cl)CCN(C(=O)CCn2ccnc2C)CC1	-6	-3	-7	7	3	2	i	-6
Cn1c(CSCc2ccc(F)cc2)nnc1SCC(=O)N1CCN(c2ccccc2)CC1	nt	5	-5	-13	-3	-19	i	-2
COc1ccc(C(=O)NCCN2CCOCC2)cc1S(=O)(=O)Nc1ccc(C)cc1	1	nt	-1	-12	-1	2	nt	nt
CCOC(=O)C1=C(c2ccccc2)NC(=S)NC1c1ccc(C)c([N+](=O)[O-])c1 (stereo unspecified)	-80	-13	-21	nt	5	5	i	-9
CN1CCN(C2CCN(S(=O)(=O)c3ccc(C(C)(C)C)cc3)CC2)CC1	17	-8	nt	7	-4	-4	i	11

(list continues)
SMILES	Env fusion inh	PABP FP inh	CSC inhib	Yeast UUG start	MT1-MMP act inh	MT1-MMP act inh RFP	Rce1 inhib	eIF4H FP inh
CSC1=NNC(c2ccc(C(C)(C)C)cc2)=NN1	-21	-3	-11	0	0	4	i	0
C=C(C)CN1C(=O)C(=O)N(CC(=C)C)C1=O	11	3	4	nt	nt	nt	i	3
Cc1cc(=O)[nH]c(SCc2cccc3cccnc23)n1	18	6	-6	-10	1	0	i	7
CCCN1CCN(CC(=O)NCC(=O)Nc2cccc(C)c2C)CC1	22	nt	nt	-7	2	4	nt	nt
Cc1ccc(-c2nc(CS(=O)CC(=O)NC(C)CCc3ccccc3)c(C)o2)cc1 (stereo unspecified)	1	4	10	-19	1	0	i	-2
NC(=O)NC(=O)COC(=O)CNS(=O)(=O)c1ccc(F)c(F)c1F	0	15	-8	-1	1	5	i	-2
Cc1ccc(C(=O)C(C)OC(=O)c2ccc(Cl)nc2)cc1 (stereo unspecified)	-2	nt	-14	-9	-1	-1	i	nt
CC(=O)n1cc(N(C(=O)CCl)c2ccc(C)cc2)c2ccccc21	32	9	18	-4	-9	-16	i	-11
CC(=O)Nc1ccc(S(=O)(=O)NCCC(=O)NNC(=O)c2ccccc2O)cc1	-11	nt	nt	-19	3	5	nt	nt
CC(NC(=O)OC(C)(C)C)C(=O)NC(CCC(=O)OCc1ccccc1)C(N)=O (stereo unspecified)	-11	0	0	nt	nt	nt	i	-7
O=[N+]([O-])CC(c1ccccc1)c1c[nH]c2ccccc12 (stereo unspecified)	21	nt	69	-9	-2	-6	i	nt
COc1ccc(NC(=O)Cn2nc(C(=O)O)c3ccccc3c2=O)cc1Cl	8	2	-4	-22	0	4	i	2
O=C(NCC1COc2ccccc2O1)c1ccc(NC(=O)C2CCCO2)cc1 (stereo unspecified)	-7	8	-3	-10	3	-1	nt	2
O=C(COC(=O)C1CCCCC1)Nc1ccc(S(=O)(=O)N2CCOCC2)cc1	-1	16	-16	nt	5	5	i	-2
Cn1cccc1/C=N/NC(=O)c1ccncc1	-6	-10	-8	-7	1	3	i	-4
N#Cc1ccccc1OCCCN1CCC(Cc2ccccc2)CC1	5	-8	43	-7	-1	-3	i	6
O=C(CN1C(=O)C(=O)N(Cc2ccccc2)C1=O)Nc1cc(Cl)cc(Cl)c1	1	-3	13	nt	5	8	i	14
CN1CCN(C(=O)/C(=C/c2ccc([N+](=O)[O-])cc2)NC(=O)c2ccccc2)CC1	-1	-1	nt	7	4	3	i	2
COc1cccc(-c2noc(C3CCCN(C(=O)Cc4ccccc4)C3)n2)c1 (stereo unspecified)	-22	5	-11	22	11	-3	i	-9
CCN(CC)S(=O)(=O)c1cccc(-c2nnc(SC(C)C(=O)NCCC3=CCCCC3)o2)c1 (stereo unspecified)	-27	nt	5	-7	1	-10	i	nt
CN1C=CC(=C2C(=O)c3ccccc3C2=O)C=C1	nt	16	nt	nt	nt	nt	i	-10
O=C1NCCN(Cc2ccc(-c3ccccc3)cc2)C1CC(=O)N1CCN(CCO)CC1 (stereo unspecified)	17	17	6	nt	-3	-2	i	26
CC1CCCN(c2ccc(C(=O)Nc3ccc4c(c3)OCO4)cc2[N+](=O)[O-])C1 (stereo unspecified)	nt	5	102*	-8	8	-3	i	-3
O=C(N/N=C/C1CC2CCC1C2)c1ccc2c(c1)OCO2 (stereo unspecified)	0	5	7	nt	-2	3	i	5
COC(=O)c1sccc1S(=O)(=O)Nc1ccc(C(O)(C(F)(F)F)C(F)(F)F)cc1	-25	nt	nt	-4	1	-3	nt	nt

Some of the entries above in a different format.
SMILES | Env fusion inh | PABP FP inh | CSC inhib | Yeast UUG start | MT1-MMP act inh | MT1-MMP act inh RFP | Rce1 inhib | eIF4H FP inh
CC(NC(=O)OC(C)(C)C)C(=O)NC(CCC(=O)OCc1ccccc1)C(N)=O (stereo unspecified) | -11 | 0 | 0 | nt | nt | nt | i | -7
O=[N+]([O-])CC(c1ccccc1)c1c[nH]c2ccccc12 (stereo unspecified) | 21 | nt | 69 | -9 | -2 | -6 | i | nt
COc1ccc(NC(=O)Cn2nc(C(=O)O)c3ccccc3c2=O)cc1Cl | 8 | 2 | -4 | -22 | 0 | 4 | i | 2
O=C(NCC1COc2ccccc2O1)c1ccc(NC(=O)C2CCCO2)cc1 (stereo unspecified) | -7 | 8 | -3 | -10 | 3 | -1 | nt | 2
O=C(COC(=O)C1CCCCC1)Nc1ccc(S(=O)(=O)N2CCOCC2)cc1 | -1 | 16 | -16 | nt | 5 | 5 | i | -2

Next section:
SMILES	Env fusion inh	PABP FP inh	CSC inhib	Yeast UUG start	MT1-MMP act inh	MT1-MMP act inh RFP	Rce1 inhib	eIF4H FP inh
CC(C)(C)c1nc(S(=O)(=O)c2ccc(Cl)cc2)c(N2CCOCC2)o1	-74	28	10	-19	-1	0	i	3
O=C(CNC(=O)c1ccccc1Cl)NCCc1cccs1	-14	nt	-15	-7	-4	-2	nt	nt
COc1cccc(-c2nnc(SCc3nc4ccccc4[nH]3)n2N)c1	nt	-2	-10	nt	nt	nt	i	-6
CC(OC(=O)c1nc(Cl)ccc1Cl)C(=O)NCc1ccccc1 (stereo unspecified)	-15	nt	nt	-13	1	7	nt	nt
COc1ccc2cc(CN(Cc3cccs3)Cc3nnnn3Cc3ccccc3)c(=O)[nH]c2c1	8	1	-7	-6	-4	-5	i	3
COc1ccccc1C(C)NC(=O)Cc1ccsc1 (stereo unspecified)	-13	-7	-11	-18	-2	0	i	-3
CSc1nc(=NC(C)=O)ss1	-62	2	9	-13	-3	1	i	-6
C/C(=N\Nc1nc(-c2ccc(C)cc2C)cs1)c1cc2ccccc2oc1=O	3	12	-11	nt	-1	2	i	10
CCOCCCNC(c1ccccc1)c1ccncc1 (stereo unspecified)	-3	12	nt	-2	-3	-2	i	21
CCN(CC)CCn1c(=S)[nH]c2cc(C(=O)NCCc3ccc(OC)c(OC)c3)ccc2c1=O	-14	nt	nt	-15	2	1	nt	nt
CSc1ccccc1NC(=O)c1ccc2c(c1)CCN2S(C)(=O)=O	-9	0	-5	-4	-2	-4	i	-3
COC(=O)c1cn(-c2ccccc2)nc1-c1cccnc1	-47	2	14	-11	-5	-2	i	0
Cn1c(N)c(C(=O)COC(=O)/C=C/c2ccccc2Cl)c(=O)n(C)c1=O	-19	nt	-11	1	-4	-5	nt	nt
CCNC(=O)NC(=O)C(C)N1C(=O)NC(c2ccccc2)(c2ccccc2)C1=O (stereo unspecified)	-4	0	-8	0	3	4	nt	-9
O=C(Nc1ccnn1C1CCN(Cc2ccc(OC(F)F)cc2)CC1)C1CCCC1	nt	-12	2	7	5	0	nt	2

By substructure: the entries above with a CF3 group (2)
SMILES	Env fusion inh	PABP FP inh	CSC inhib	Yeast UUG start	MT1-MMP act inh	MT1-MMP act inh RFP	Rce1 inhib	eIF4H FP inh
FC(F)(F)c1cc(C(F)(F)F)c2ccc(N3CCN(c4ccc(Cl)cc4)CC3)nc2n1	-37	0	14	-15	5	-2	i	-3
COC(=O)c1sccc1S(=O)(=O)Nc1ccc(C(O)(C(F)(F)F)C(F)(F)F)cc1	-25	nt	nt	-4	1	-3	nt	nt

Shown bar-delimited: part of the list above
SMILES | Env fusion inh | PABP FP inh | CSC inhib | Yeast UUG start | MT1-MMP act inh | MT1-MMP act inh RFP | Rce1 inhib | eIF4H FP inh
CC(OC(=O)c1nc(Cl)ccc1Cl)C(=O)NCc1ccccc1 (stereo unspecified) | -15 | nt | nt | -13 | 1 | 7 | nt | nt
COc1ccc2cc(CN(Cc3cccs3)Cc3nnnn3Cc3ccccc3)c(=O)[nH]c2c1 | 8 | 1 | -7 | -6 | -4 | -5 | i | 3

Compounds were not picked by outcome; about 2.9% have a hit in one of these screens.
